High-throughput results (PubChem BioAssay)
Sa ugtP lethal = kills S. aureus RN4220 lacking UgtP; S. aureus RN4220 ugtP deletion, OD600 growth, 16 h; some inactives read as strong as hits; 330,000 compounds, 0.54% hits; growth inhibition, % (no concentration beside the values); AID 1259309;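 active means z-score under -3 and OD600 up to 0.15 on both plates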;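 further: plate controls were untreated wells for no effect and antibiotic for full effect; wells of about 80 µL received 100 nL stock; the first replicate is given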
Mtb hypoxia rep = inhibitors of hypoxia-regulated fluorescent reporter in Mycobacterium tuberculosis. M. tuberculosis hypoxia-regulated fluorescent reporter, fluorescence. fluorescence inhibition, % (test concentration not listed). 300,000 compounds, 0.1% hits. AID 1159583;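 active means 35 to 45% if threefold the growth effect, above 45% if 1.5-fold the growth effect; inactive means the rest, general growth blockers included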;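 further: wells of about 50 µL received 100 nL stock; 0% = vehicle wells and 100% = reference inhibitor wells; whole bacteria with a GFP reporter of the hypoxia response; strong numbers were not always called active; many hits fall short of the cut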
Autofluor counter = compound fluorescence in toxin protease inhibitor counterscreen; compound autofluorescence counterscreen, microsphere flow cytometry; stronger effect = higher value; fluorescence intensity (test concentration not listed); 360,000 compounds, 3.1% hits;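 active means at least 3 SD above the mean of all compounds, about 16000 in these data; inconclusive means too few beads counted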;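 further: 100 nL of 1 mM stock went into each well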
BJeLR viability = BJeLR cell viability loss | AID 1554 | BJeLR (HRASV12) viability, CellTiter-Glo ATP luminescence, 48 h; reference of the scale not given here | 300,000 compounds, 0.17% hits | inhibition, % (test concentration not listed);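 active means replicate mean above 50%; inconclusive means above 50% but judged a plate artefact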;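 further: 50 nL library stock added to about 25 µL; numbers are from one replicate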
Sa RN4220 lethal = S. aureus RN4220 growth inhibition; OD600, 16 h; inhibition, % (test concentration not listed); 330,000 compounds, 0.33% hits; AID 1259311;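 active means z-score of -3 or lower and OD600 up to 0.18 on both plates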;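 further: plate controls were untreated cells for no effect and reference antibiotic for full effect; stock transfer was 100 nL into about 80 µL; one replicate is shown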
PrP 5UTR inh = inhibition of PrP 5' UTR reporter expression. cell-based PrP 5' UTR mRNA reporter, plate reader. inhibition, % (no concentration beside the values). 340,000 compounds, 0.35% hits;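 active means every replicate at 50% or more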;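 further: 0 = median of the neutral control wells; tested in H4 reporter cells; numbers are from one replicate; inactives centre near -14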
Mtb hypoxia rep growth = recorded beside Mtb hypoxia rep, whose call it bears; growth inhibition, %; measured here: M. tuberculosis growth (absorbance);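 0% = vehicle and 100% = reference antibiotic; read after six days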
An asterisk follows results filed as active; ? = inconclusive; / = not tested or not shown; & = joins results of further samples.

Start of the listing, in advance, four compounds:
SMILES	Sa ugtP lethal	Mtb hypoxia rep	Mtb hypoxia rep growth	Autofluor counter	BJeLR viability	Sa RN4220 lethal	PrP 5UTR inh
CCc1nnc(NC(=O)CN2CCN(c3nc(-c4ccccc4)cs3)CC2)s1	17	0	7	11401	-12	1.2	-1
COc1ccc(C2CC(c3ccc(F)cc3)Nc3nc(N)nn32)cc1 (stereo not drawn)	8	/	/	5845	-7	1.2	-5
CC/C(=N\NC(=O)OC)c1ccc(OC(F)F)cc1	/	/	/	3287	-1	/	-13
O=C(Nc1ccc(N2CCOCC2)c(S(=O)(=O)Nc2ccc(Cl)cc2)c1)c1cnccn1	-3	-5	5	3593	9	8.4	-25

The listing, previewed entries included:
SMILES	Sa ugtP lethal	Mtb hypoxia rep	Mtb hypoxia rep growth	Autofluor counter	BJeLR viability	Sa RN4220 lethal	PrP 5UTR inh
CCc1nnc(NC(=O)CN2CCN(c3nc(-c4ccccc4)cs3)CC2)s1	17	0	7	11401	-12	1.2	-1
COc1ccc(C2CC(c3ccc(F)cc3)Nc3nc(N)nn32)cc1 (stereo not drawn)	8	/	/	5845	-7	1.2	-5
CC/C(=N\NC(=O)OC)c1ccc(OC(F)F)cc1	/	/	/	3287	-1	/	-13
O=C(Nc1ccc(N2CCOCC2)c(S(=O)(=O)Nc2ccc(Cl)cc2)c1)c1cnccn1	-3	-5	5	3593	9	8.4	-25
O=C(COC(=O)CCC(=O)c1cccs1)NC1CCCCC1	-2	-1	-3	8395	/	2.2	-34
COCC(=O)Nc1ncc(S(=O)(=O)c2ccc([N+](=O)[O-])cc2)s1	56	-6	5	4160	-5	61	-4
CCN(c1ccccc1)S(=O)(=O)c1ccc(OC)c(OC)c1	-5	3	4	11560	-10	5.4	-39
CN1CCN(C(=S)NC(=O)c2cccc([N+](=O)[O-])c2)CC1	-5	-19	-7	?	7	-1.6	-1
O=C1C2CC=CCC2C(=O)N1c1ccc(OCC(O)Cn2nnc3ccccc32)cc1 (stereo not drawn)	-2	-3	8	25583*	-1	3.5	-19
CCN(CC(=O)NCc1ccc(F)cc1)C(=O)CN1CCN(c2ccc(OC)cc2)CC1	7	-4	6	3928	-7	4.7	-18
CCc1ccc(C(=O)N/N=C/c2cccc3ccccc23)nc1	/	/	/	2540	-5	/	-63
CCN=c1scc(-c2ccc(F)cc2)n1N=Cc1ccccn1	18	6	4	/	/	12	/
COc1ccc(-n2c(SCC(=O)N3CCOCC3)nnc2C(C)N2CCCCC2)cc1 (stereo not drawn)	-4	7	5	/	21	0.3	/
COC(=O)[C@@H](NC(=O)c1cc(COc2cncc(Cl)c2)on1)c1ccccc1	1	22	26	5426	-11	0.2	-19
Cc1cc(NC(=O)c2ccccc2)n(C(C)(C)C)n1	1	3	1	/	4	-0.3	/
COc1ccc2[nH]c(=O)c(CN(CCN(C)C)C(=O)NCc3ccccc3)cc2c1	-5	3	6	2624	-1	3.6	-10
O=C(O)CCSc1nc2ccc(Br)cc2[nH]1	2	/	/	2515	2	-3.7	-10
C[C@H](O)[C@H](O)[C@H]1CNc2nc(N)[nH]c(=O)c2N1	/	/	/	6407	-12	/	-23
Cc1nc(/N=C(\N)NC(=O)c2ccccc2)nc2ccccc12	/	/	/	10930	-6	/	-36
CSc1ccc(C=Nn2c(C)nnc2C)cc1	2	-10	3	/	/	1.8	/
O=C1C(O)CCN1Cc1ccccc1 (stereo not drawn)	0	8	3	4222	/	0.4	-12
Cc1nn(-c2cc(N3CCNCC3)ccc2[N+](=O)[O-])c(=O)c2ccccc12	0	/	/	3082	10	3.1	7
COc1ccc(C(=O)c2ccc(Cl)cc2Cl)cc1	/	/	/	2095	1	/	-7
CCOC(=O)c1cnc(SC2CC(=O)N(c3ccccc3)C2=O)nc1N (stereo not drawn)	16	/	/	3063	4	2.4	-5
COc1ccc(/C=C2/SC(=O)N(NS(=O)(=O)c3ccccc3)C2=S)cc1OC	0	6	5	21520*	-1	48	-7
CCOc1cccc(-c2nnc(SCC(=O)Nc3cc(C)ccc3OC)n2N)c1	0	5	4	9121	0	-1.3	-34
Cc1ccsc1C=NNc1ccc(Cl)nn1	8	13	8	/	/	0.1	/
Cc1c(Cl)cccc1NC(=S)N(CCCN1CCOCC1)Cc1ccco1	3	17	3	3115	/	3.0	-7
CCCNc1nc2c(c(=O)n(C)c(=O)n2C)n1CCc1ccccc1	3	3	2	7723	13	2.0	/
O=C(CCNS(=O)(=O)c1cccc2nsnc12)NCCC1=CCCCC1	10	15	2	4155	-11	4.6	-29
CC(=NCCc1c(C)[nH]c2ccc(OC(F)(F)F)cc12)C1=C(O)CC(c2ccccc2)CC1=O (stereo not drawn)	0	-12	-2	4220	21	-12	-36
CCCc1c(C(=O)N/N=C/c2sccc2C)nnn1-c1nonc1N	/	/	/	5765	-3	/	-14
CC(C(=O)Nc1ncc2c(n1)CC(C)(C)CC2=O)N1C(=O)c2ccccc2C1=O (stereo not drawn)	1	2	6	2838	-23	6.3	-16
CCc1nnc(NC(=O)CSc2ccc(-c3ccc(-n4cccn4)cc3)nn2)s1	4	-2	-2	?	-5	4.9	-49
CC1=C(C(=O)OCc2ccccc2)C(c2ccc(Cl)cc2)NC(=O)N1CCCCCC(=O)O (stereo not drawn)	12	7	15	3045	2	6.4	-10
CC(=O)c1cccc(NC(=O)c2nccnc2C(=O)O)c1	10	8	5	7661	2	4.8	-10
COC(=O)C=C1NC(=O)C(C)S1 (stereo not drawn)	-4	13	5	/	/	9.8	/
COc1ccc2nc(NC(=O)c3c(C)noc3C)sc2c1	4	5	-4	2999	/	2.1	-12
N=c1c2c3c(sc2nc2n1CCCCC2)CCCC3	0	/	/	2858	4	-18	-33
CCn1c2ccccc2c2cc(NS(=O)(=O)c3ccccc3C)ccc21	-11	/	/	2396	8	-2.0	-8
CC1CC(C)(C)CC2(C1)NC(=O)N(CC(=O)OCC(=O)Nc1cc(S(=O)(=O)N3CCCCC3)ccc1Cl)C2=O (stereo not drawn)	-1	12	0	4006	/	5.4	-15
CCOc1cc(/C=C2\C(=O)NN(c3ccccc3)C2=O)cc([N+](=O)[O-])c1O	-3	6	1	4143	3	-0.8	-19
C=CCOc1ccc(/C=C2\C(=N)N3N=C(S(=O)(=O)CC)SC3=NC2=O)cc1OC	2	48*	29*	2555	-15	7.4	-7
CCCNC(=S)N1CCN(C(c2ccccc2)c2ccccc2)CC1	13	7	2	2202	0	-1.0	-75
CN1CCC(=NNC(=O)C(=O)NC2CCCCC2)CC1	-4	-2	3	5939	4	-0.7	-16
CC(C)CCn1c(NCCN(C)C)nc2c1c(=O)[nH]c(=O)n2C	5	8	5	2935	0	2.2	-8
O=S1(=O)CCOCC(Cc2ccccc2)N1Cc1ccc(Cl)cc1 (stereo not drawn)	5	16	7	/	/	11	/
Cc1c(-c2ccccc2)oc2c(C(=O)OCC(=O)Nc3cccc(F)c3)cccc2c1=O	-22	7	0	2531	-1	11	-18
COC(=O)COc1ccc(S(=O)(=O)N2CCOCC2)cc1C	4	-2	5	15495	9	3.6	-9
CCn1cc(C(=O)NCCCOC)c(=O)c2cc(S(=O)(=O)N3CCC(C)CC3)ccc21	5	-4	-7	4126	-2	1.0	-4
COc1ccccc1CNC(=O)c1cc2sccc2n1C	-7	3	5	11240	-2	3.5	-11
CCOC(=O)C1CCCN(C(=O)c2cc(-c3ccc(C)cc3)nc3ccccc23)C1 (stereo not drawn)	4	3	5	4063	1	7.0	-17
Nc1nc(NCc2ccco2)nc(N2CCCCCC2)c1[N+](=O)[O-]	98*	1	6	10296	12	95*	11
O=C(Nc1ccccc1Cl)C1Cc2ccccc2OC1=NO (stereo not drawn)	3	10	20	/	/	3.7	/
Cc1ccc2nc(CSc3nnc(Cc4cccs4)n3C3CCCCC3)cc(=O)n2c1	8	/	/	4859	-4	7.4	-15
C#C[C@@]1(O)CCC2C3CCC4=CC(=NOCC(=O)NC(C(=O)NC(CC(C)C)C(=O)O)C(C)C)CC[C@]4(C)C3CC[C@@]21C (stereo partly drawn)	5	1	9	/	/	6.1	/
Cc1ccc(S(=O)(=O)Cn2nnnc2C(CC(C)C)N2CCN(c3ccc(F)cc3)CC2)cc1 (stereo not drawn)	5	/	/	4040	5	4.7	-30
Cc1ccc(Cl)cc1NC(=S)N1CCC(c2ccccc2)C1 (stereo not drawn)	5	7	1	5046	-18	0.4	-13
OCc1nc2ccccc2n1CCOc1ccccc1	13	-9	-4	5714	-2	5.0	-13
Nc1nc(COC(=O)C2CCN(C(=O)c3ccc(Cl)cc3)CC2)nc(Nc2ccccc2)n1	-3	3	3	8184	/	-0.2	-23
Next part.
SMILES	Sa ugtP lethal	Mtb hypoxia rep	Mtb hypoxia rep growth	Autofluor counter	BJeLR viability	Sa RN4220 lethal	PrP 5UTR inh
Cc1ccc(S(=O)(=O)N2CCCCC2)cc1NC(=O)CSc1nnc(C2CC2)n1C	2	7	2	3575	/	3.9	-54
O=C(c1ccc(Cl)c(F)c1F)N1CCCC1	5	13	10	3400	-2	4.8	-9
COc1ccc(Cc2nnc(SCC(=O)N3CCCCC3)o2)cc1	-4	2	9	2455	1	4.0	-7
CCOc1ccccc1NC(=O)C1CCCN(S(=O)(=O)c2ccc(-n3cnnn3)cc2)C1 (stereo not drawn)	6	12	1	3006	-5	4.6	-8
COc1cc2c(cc1NC(=S)Nc1ccccc1C)oc1ccccc12	-9	0	0	4337	8	-0.4	-25
C=CCn1c(SCC(N)=O)nnc1-c1cc2c(s1)CCC(CC)C2 (stereo not drawn)	4	8	5	2348	-8	3.8	-68
COc1ccc(C(=O)CSc2ccc3nnc(-c4cccnc4)n3n2)cc1	11	6	5	2027	6	1.3	-7
O=C(CCOc1ccc(F)cc1)Nc1nccs1	8	13	-1	3893	-2	2.5	-27
CCCC(C(=O)NCc1ccccc1)N(C(=O)Cn1nnc(-c2cccs2)n1)c1ccc2c(c1)OCCO2 (stereo not drawn)	11	/	/	4125	/	-4.9	-20
C1CCN(Cc2nnnn2CC2CCCO2)CC1 (stereo not drawn)	8	10	-1	3946	5	6.2	-13
COc1ccc(C(=O)NN=C/C(C)=C/c2ccccc2)cc1OC	-3	-10	-1	/	/	-1.2	/
CCCCc1ccc(NC(=O)c2c(C)noc2C)cc1	12	13	8	17390*	-2	6.6	-5
O=C1CCCc2c1[nH]c1ccc(CN3CCCCC3)cc21	-1	0	-5	23077*	-20	-0.3	-5
CCN(CC)Cc1c(O)c(Cl)cc2c(C)c(C)c(=O)oc12	-4	-6	11	?	0	-0.5	-12
COC(=O)C1=COC(OC2OC(CO)C(O)C(O)C2O)C2C(CO)=CCC12 (stereo not drawn)	3&3	5&17	4&8	/	/	8.1&6.2	/
CCCc1cc(-c2n[nH]c(=S)n2Cc2ccccc2)cs1	-11	-8	-6	10883	-11	-1.2	-2
Cc1cc2cc(CCNC(=O)C3c4ccccc4Oc4ccccc43)c(=O)[nH]c2cc1C	5	5	5	/	6	1.2	/
COc1ccc(CCNC(=O)COC(=O)c2cc(=O)c3ccccc3o2)cc1	8	-7	-9	2771	/	1.0	-25
CC(=O)Nc1ccc(NC(=O)COC(=O)c2n[nH]c3ccccc23)cc1	5	13	3	3443	-2	5.4	3
Cc1cc(C)nc(/N=C(\N)Nc2ccc3c(c2)OCCO3)n1	/	/	/	2578	14	/	-33
Cc1ccccc1C(=O)OC(C)C(=O)NCc1ccc2c(c1)OCO2 (stereo not drawn)	7	8	1	6226	/	2.8	-13
CCOC(=O)Cn1nnnc1CN1CCN(c2ccc(OC)cc2)CC1	11	2	4	4348	-9	9.3	-26
CN(CC(=O)O)S(=O)(=O)c1ccc2[nH]c(=O)c(=O)[nH]c2c1	2	4	-4	4393	8	2.2	-21
O=C(NCc1ccccn1)C(=O)Nc1ccccc1	14	2	3	4929	-4	1.1	-16
CC(/C=N/NC(=O)COc1ccccc1C)=N\NC(=O)COc1ccccc1C	/	/	/	5153	5	/	-10
O=[N+]([O-])c1ccc(S(=O)(=O)N2CCN(Cc3ccco3)CC2)cc1	15	2	0	2824	1	42	-14
CN(C)C(CNC(=O)c1cccc(S(=O)(=O)Nc2ccccc2Cl)c1)c1ccco1 (stereo not drawn)	3	-6	3	3733	/	4.6	-45
COCCNC(=O)C(c1ccc(C)o1)N(CCOC)C(=O)Cn1nnc2ccccc21 (stereo not drawn)	5	5	0	2113	-4	4.6	-18

No enrichment for hits; any-hit rate near 4%.
